GALR2 ag: agonists of human galanin receptor 2 (GALR2) | GALR2-expressing cells, agonist activation read-out | O43603 | activation, %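 (tested at 5 µM)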 | AID 803 | 140,000 compounds, 0.48% hits;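 active = above mean plus 3 SD of all compounds, about 5% in these data, not always enough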;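 note: 0% = vehicle buffer wells and 100% = reference agonist at full effect; tested in CHO reporter cells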
Target sequence (O43603 whole entry, looked up): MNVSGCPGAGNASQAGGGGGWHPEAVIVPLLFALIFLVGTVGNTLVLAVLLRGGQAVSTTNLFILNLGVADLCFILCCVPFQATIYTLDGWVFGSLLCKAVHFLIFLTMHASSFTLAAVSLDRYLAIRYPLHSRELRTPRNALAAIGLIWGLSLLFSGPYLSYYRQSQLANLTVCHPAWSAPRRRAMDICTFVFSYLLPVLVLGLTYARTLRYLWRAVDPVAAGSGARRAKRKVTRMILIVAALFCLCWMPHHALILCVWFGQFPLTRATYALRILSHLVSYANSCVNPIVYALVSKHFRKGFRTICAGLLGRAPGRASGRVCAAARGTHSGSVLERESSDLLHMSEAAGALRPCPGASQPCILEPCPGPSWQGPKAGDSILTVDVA
RGS16-Gao HTS: regulators of human RGS16-Galphao interaction; O15492+P09471; bead-based flow cytometry RGS16-Galphao binding, fluorescence; actives lie on both sides; binding response (% of control), % at 10 µM; 220,000 compounds, 0.38% hits;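 active = below 25% or above 175%, edge rows of some plates excepted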;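 note: Galphao activated by GDP with aluminum fluoride before binding; 100% = wells without compound and 0% = beads without RGS; some results beyond the cut were filed as inactive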
Target sequence (O15492 whole entry, looked up): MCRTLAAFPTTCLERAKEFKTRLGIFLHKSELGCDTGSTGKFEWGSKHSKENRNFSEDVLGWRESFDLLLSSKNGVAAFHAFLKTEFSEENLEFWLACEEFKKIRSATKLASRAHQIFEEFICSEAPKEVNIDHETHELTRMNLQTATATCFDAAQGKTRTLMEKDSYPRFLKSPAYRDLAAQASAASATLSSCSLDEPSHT
Target sequence (P09471 whole entry, looked up): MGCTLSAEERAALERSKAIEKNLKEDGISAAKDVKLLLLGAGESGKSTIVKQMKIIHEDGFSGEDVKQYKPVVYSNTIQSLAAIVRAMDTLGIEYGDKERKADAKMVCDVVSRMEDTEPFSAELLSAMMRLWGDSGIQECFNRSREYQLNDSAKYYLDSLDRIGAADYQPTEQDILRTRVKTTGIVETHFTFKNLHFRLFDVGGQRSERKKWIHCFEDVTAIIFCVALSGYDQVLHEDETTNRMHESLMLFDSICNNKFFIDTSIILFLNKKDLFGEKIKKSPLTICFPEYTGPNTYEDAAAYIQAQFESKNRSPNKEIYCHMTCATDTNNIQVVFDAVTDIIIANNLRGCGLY
PKD1 kinase inh: inhibitors of human PKD1 kinase. AID 797. Q15139. PKD1 kinase fluorescence polarization assay. inhibition, %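 (about 10 µM by stock and volumes)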. 200,000 compounds, 0.056% hits;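 active = inhibition of 50% or more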;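 note: controls were vehicle for no effect and a reference inhibitor for full effect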
Insulin prom inh: TRM-6 insulin promoter activity inhibition. TRM-6 cells (human fetal islet line), insulin promoter-eGFP reporter, imaging; reporter expression induced with tamoxifen. inhibition, % at 2 µM. 130,000 compounds, 0.9% hits. AID 1273;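 active = inhibition above the mean plus 3 SD, with well images judged a real hit on visual review, cut at about 60% in these data, passing the limit was not always enough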
HSV replic up: HSV replication enhancement. HSV replication augmentation in cells, fold increase. 220,000 compounds, 0.005% hits. maximum fold increase;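 active = peak rise of 1.5-fold or more in the series; tested in PC3 cells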;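 note: first round at 10 µM; read as green reporter fluorescence; hits show the peak of a series up to 25 µM; 1 = signal of infected wells without compound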
Insulin prom inh cell count: also measured in Insulin prom inh; calls as there; normalized cell count, %; measured here: cell count, toxicity; reference of the scale not given here;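 cells exposed to compound for 48 h; stained nuclei by imaging scaled within each plate; lower means fewer cells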
HSV replic up primary fold: further read-out of HSV replic up, marked with its call; fold increase; compound at 10 µM; measured here: primary screen fold increase 10 uM; tested in PC3 cells;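 GFP signal in the first replicate; 1 = infected wells without compound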
Starred values were filed as active, the others as inactive; i = inactive; / = no result given. Outcome played no part in choosing rows; any-hit rate near 1.1%.

SMILES	GALR2 ag	RGS16-Gao HTS	PKD1 kinase inh	Insulin prom inh	Insulin prom inh cell count	HSV replic up	HSV replic up primary fold
Cc1cccc(NC(=O)CCc2ccccc2)c1	/	98	4	25	159	i	0.98
Cc1ccc(/C=C/C2=NN(Cc3ccc(Cl)c(Cl)c3)C(=O)CC2)cc1	-2.2	103	7	/	/	i	0.86
Cc1ccc(OCC(=O)NC2CC(C)(C)NC(C)(C)C2)c(C)c1	/	105	-7	-33	126	i	0.99
O=C(NCCNC(=O)c1ccc(Br)o1)c1ccc(Br)o1	-1.7	107	-6	29	111	i	1
COc1ccc2[nH]c(C(=O)N(Cc3ccccn3)Cc3ccccn3)cc2c1	/	99	/	/	/	i	0.95
C=CCNC(=O)NC(=O)COn1nnc2ccc(S(=O)(=O)N(C)C)cc21	-0.4	107	3	17	100	i	0.97
COC(=O)c1oc2ccc(Br)cc2c1NC(C)=O	-2.0	61	-3	/	/	i	0.95
O=C(/C=C/c1ccc(OCc2ccccc2)c(OCc2ccccc2)c1)c1cccnc1	-0.3	95	6	-5	102	i	0.71
CCc1c(C(=O)NNC(=S)NCCc2ccccc2)csc1C	-1.6	94	-4	/	/	i	0.99
CC1(C)CC(=O)c2sc(NC(=O)Cc3cccs3)nc2C1	-0.7	79	-3	-243	58	i	0.81
CC(C)(C)C(=O)O/N=C(\N)c1c(Cl)cccc1Cl	/	101	/	/	/	i	1
COC(=O)c1ccc(C(=O)Nc2ccc(C(C)C)cc2N)cc1	/	98	-2	/	/	i	0.88
COc1cc(C2NC(=O)NC(O)(C(F)(F)F)C2C(=O)c2cccs2)ccc1O (centres undefined)	-2.1	104	-2	-24	65	i	0.95
CCC1CC(/C(C)=N/NC(N)=O)OC1=O (centres undefined)	/	102	-3	33	97	i	0.74
Cc1[nH]c2ccc(C(=O)N3CCCCC3)cc2c1C	/	101	2	/	/	i	0.94
O=C(NCCc1ccc(Cl)cc1)c1cccs1	/	103	-7	-14	91	i	1
CCn1cc(C(=O)NCCCN2CCC(C)CC2)c(=O)c2cc(S(=O)(=O)N3CCCC3)ccc21	-0.9	99	-4	/	/	i	0.88
CC(C)c1ccc(N=C(N)N=C(N)N)cc1	/	101	-5	/	/	i	0.85
COc1ccccc1NC(=O)C1=C(C)Nc2nc(-c3ccc(N(C)C)cc3)nn2C1c1ccncc1 (centres undefined)	0.5	104	13	60	89	i	0.9
O=C1C2CC=C(Cl)CC2C(=O)N1CCC[n+]1ccccc1 (centres undefined)	-0.1	99	-3	-33	108	i	0.84
Cc1ccc(C)c(S(=O)(=O)N2CCN(CC(=O)NC(=O)NCc3ccccc3)CC2)c1	-3.2	103	-7	-27	63	i	0.96
O=C1c2ccccc2C(Nc2cccnc2)N1Cc1ccc2c(c1)OCO2 (centres undefined)	-0.7	113	-10	/	/	i	0.82
O=C(NCc1ccc2c(c1)OCO2)C1CC(=O)N(C2CCCC2)C1 (centres undefined)	-1.3	98	-3	3	118	i	0.96
O=C(c1ccco1)N1CCN(c2ncnc3scc(-c4cccs4)c23)CC1	-1.1	101	-4	-31	129	i	1.1
CCOc1ccc(NC(=S)NCCCN2CCOCC2)cc1	/	104	5	40	115	i	0.97

The final 2 compounds of the section before open the next one:
SMILES	GALR2 ag	RGS16-Gao HTS	PKD1 kinase inh	Insulin prom inh	Insulin prom inh cell count	HSV replic up	HSV replic up primary fold
O=C(c1ccco1)N1CCN(c2ncnc3scc(-c4cccs4)c23)CC1	-1.1	101	-4	-31	129	i	1.1
CCOc1ccc(NC(=S)NCCCN2CCOCC2)cc1	/	104	5	40	115	i	0.97
CCCNC(=O)N[C@@H](Cc1ccccc1)C(=O)OC	-1.0	103	-4	7	87	i	1.1
COc1ccc(Nc2oc(COc3ccccc3OC)nc2C#N)cc1	-2.8	54	0	15	120	i	0.96
Cc1ccc(C(=O)NCCNS(=O)(=O)c2ccccc2)cc1	-3.0	92	1	/	/	i	0.88
NC(=O)c1cccnc1Nc1ccccc1Cl	-0.1	111	2	37	103	i	0.87
CC(C)(C)OC(=O)N1CCCC1C(=O)N1CCCC1C(=O)N1CCCC1C(=O)O (centres undefined)	-3.1	84	-9	56	117	i	0.78
COCc1cc(C)nc(N/N=C/c2ccc(-c3ccc(Cl)cc3[N+](=O)[O-])o2)c1C#N	/	93	4	/	/	i	1
C/C(=N\NC(=O)c1c(Br)c(C)nn1C)c1cccc(NC(=O)c2ccccc2C)c1	0.3	105	-7	17	119	i	0.84
CSc1n[nH]c(=S)n1N	/	107	/	/	/	i	0.99
COCCn1c(CNc2ccc(F)cc2)nnc1SCC(=O)Nc1ccc(OC)cc1OC	-1.5	98	-8	24	71	i	0.9
CC(C)c1ccc(C2NC(=O)NC3=C2CCc2ccccc23)cc1 (centres undefined)	-0.9	97	-6	17	73	i	0.9
O=C(NCCc1ccccc1)c1ccc(=O)[nH]c1	-1.3	103	1	23	63	i	0.92
O=C(CCCn1c(=O)[nH]c2ccsc2c1=O)Nc1ccc(F)cc1	/	104	0	/	/	i	0.62
Cc1ccc(C2C(C#N)=C(N)Oc3c2c(=O)n(C)c(=O)n3C)cc1 (centres undefined)	-2.4	101	-4	2	77	i	0.92
O=C(/C=C/NNC(=O)c1cccc(Br)c1)c1ccccc1	-1.1	103	1	14	85	i	1.1
CN(CC(=O)Nc1ccc(N2CCOCC2)cc1)C(=O)COc1ccccc1F	/	99	/	/	/	i	1.2
O=C(Nc1ccc(Cl)cc1)N1CCCN(c2ccc(C(F)(F)F)cc2[N+](=O)[O-])CC1	/	99	/	/	/	i	1.2
O=C1Nc2ccccc2/C1=N\N=C\C1=C(N2CCOCC2)C(=C\c2ccccc2)/CC1	-2.9	101	-18	47	70	i	0.94
O=C(NCc1ccco1)c1cnn2c(C(F)(F)F)cc(-c3ccccc3)nc12	-1.7	170	-6	/	/	i	0.68
COc1ccc(NC(=S)NNC(=O)COc2ccc(Cl)cc2Cl)cc1	-0.8	104	8	31	84	i	0.94
Cn1c(=NC(=O)C2=NNC(=O)CC2)sc2ccccc21	/	99	3	/	/	i	0.94
Cc1ccccc1CSCCNC(=O)Nc1ccccc1	/	93	5	12	102	i	0.87
CC(NC(=O)c1ccco1)C(c1cccs1)N1CCN(c2ccccc2)CC1 (centres undefined)	-0.7	100	-1	/	/	i	0.95
O=C(Nc1ccc2c3c(cccc13)CC2)c1ccc(Br)o1	-1.7	107	4	-100	95	/	/
O=c1cc(Cc2nnc(SCc3ccccc3)n2-c2ccc(Cl)cc2)[nH]c(=O)[nH]1	/	101	9	-25	44	i	1.1
O=C(COC(=O)c1ccccc1C(=O)N1CCN(c2ccccc2)CC1)Nc1ccc(F)cc1	-1.3	124	-1	-58	100	i	1

More structures.
SMILES	GALR2 ag	RGS16-Gao HTS	PKD1 kinase inh	Insulin prom inh	Insulin prom inh cell count	HSV replic up	HSV replic up primary fold
O=C(O)c1ccc(-c2nc(-c3ccccc3)c(-c3cccs3)[nH]2)cc1	/	104	/	/	/	i	0.93
Clc1ccc(-c2noc(CN3CCN(c4ccccc4)CC3)n2)cc1	-2.0	107	-2	24	166	i	1
COc1ccccc1-c1nnc2sc(C3CCCCC3)nn12	0.1	95	-11	41	105	i	0.76
CCOc1ccc(NC(=O)C(NC(=O)C2CCC(C)CC2)C(C)C)cc1 (centres undefined)	/	101	1	27	68	i	0.97
O=C(O)C1CCC(N2C(=O)C3C4CCC(C4)C3C2=O)CC1 (centres undefined)	/	102	3	/	/	i	1.1
O=C(NCc1ccccc1)C1=C[C@H](c2csc3ccccc23)C[C@H](OCc2ccc(CO)cc2)O1	/	96	/	/	/	i	0.81
CCOc1ccccc1Nc1nnc(SC(C)C(=O)Nc2nc(-c3ccccc3)cs2)s1 (centres undefined)	-2.1	102	1	7	161	i	0.78
COc1ccc(CC(CC(=O)O)C(=O)NCc2ccccc2)cc1 (centres undefined)	/	104	1	/	/	i	1.1
Cn1c2ccccc2c2cc(/C=C(\NC(=O)c3ccccc3)C(=O)O)ccc21	/	109	/	/	/	i	0.84
c1coc(CNc2nc(-c3cccs3)cs2)c1	/	103	2	28	130	i	1
COCCn1c(C)cc(C(=O)COC(=O)c2ccc([N+](=O)[O-])o2)c1C	/	86	5	/	/	i	0.95
O=C(CCn1c(=S)[nH]c2ccccc2c1=O)NCCc1ccccc1	/	104	-2	35	69	i	0.97
O=C(NCCN1CCOCC1)c1cc(-c2ccc(F)cc2)on1	-2.5	141	0	/	/	i	0.95
CC1CN(C(=O)COC(=O)c2ccc(NC(=O)CC#N)cc2)CC(C)O1 (centres undefined)	/	103	-12	/	/	i	0.87
CSc1ccc(NC(=O)/C=C/C(=O)O)cc1	/	79	/	/	/	i	1.1
Cc1ccc(Cl)cc1N1CCN(C(=O)C2(S(=O)(=O)c3ccc(Cl)cc3)CC2)CC1	-1.9	90	-9	-200	141	i	0.97
COc1ccc(C(=O)Nc2ccccc2C(=O)O)cc1NC(=O)C(c1ccccc1)c1ccccc1	/	97	/	/	/	i	1.1
CCOC(=O)C1=C(N)OC2=C(C(=O)CC(C)(C)C2)C1C1CCCCC1 (centres undefined)	-0.8	100	-1	/	/	i	0.98
CN1CCN(S(=O)(=O)c2ccc(NC(=S)NC(=O)c3ccc(Cl)cc3)cc2)CC1	-0.8	113	2	/	/	/	/
CC(C)[C@H](NC(=O)c1ccc(Cl)c([N+](=O)[O-])c1)C(=O)NCc1ccc(Cl)cc1Cl	-1.8	103	-4	-45	63	i	0.89
Cc1nn(-c2ccccc2)c(N2CCCC2)c1/C=N/NC(=O)c1cc(-c2cccs2)nc2ccccc12	-0.3	101	-8	/	/	i	0.8
O=C(O)COc1ccc(Br)cc1CP(=O)(c1ccccc1)c1ccccc1	/	98	/	/	/	i	1.2
CC(=O)N(Cc1cccnc1)c1cccc(-c2nc3ccccc3s2)c1	/	102	6	/	/	i	1
CCn1cc(C(=O)O)c(=O)c2cc(F)c(N3CCN(S(=O)(=O)c4ccc(NC(C)=O)cc4)CC3)cc21	1.1	96	8	/	/	i	0.96
C[C@@H](C(=O)Nc1nc(-c2ccccn2)cs1)N1C(=O)C2CCCCC2C1=O (some centres undefined)	-2.0	98	-5	/	/	i	0.97

Going on with the list.
SMILES	GALR2 ag	RGS16-Gao HTS	PKD1 kinase inh	Insulin prom inh	Insulin prom inh cell count	HSV replic up	HSV replic up primary fold
COCCNC(=S)N1CCCC(CO)C1 (centres undefined)	/	99	2	/	/	i	1
CC(=O)Nc1ccc(S(=O)(=O)N(C)c2ccccc2)cc1	-1.6	101	-2	-25	82	i	0.88
CCC(=O)NC(=S)Nc1ccc(NC(=O)c2ccccc2[N+](=O)[O-])cc1	-0.9	103	-17	/	/	i	0.95
CCN(CC)CCn1c(NCc2ccc(OC)cc2)nc2ccccc21	-0.3	100	-17	19	144	i	0.94
Cc1nn(-c2ccccc2)c(N)c1C(c1ccccc1)c1c(C)nn(-c2ccccc2)c1N	-0.8	103	-9	/	/	i	0.79
NC(=O)[C@@H]1CCCN1Cc1nc(-c2cccs2)no1	/	99	-3	/	/	i	0.98
CN(CCOc1ccccc1)c1ccc(S(=O)(=O)N2CCCCC2)cn1	-2.5	102	0	42	97	i	1.1
CCOC(=O)c1cc(NC(=O)N(C(C)C)C(C)C)c(C)nc1C	-1.3	103	-3	/	/	i	0.99
COc1ccc(NCc2nnc(SCC(=O)Nc3ccccc3)n2C)cc1	/	95	2	/	/	i	0.95
O=C(O)CCCNCc1ccccc1F	-0.9	98	-4	/	/	i	0.71
COc1ccc(/C=C2\NC(=O)C(C=NCc3ccccc3)=C2O)cc1	-0.2	105	-12	39	91	i	0.9
CCc1nnc(NC(=O)C(CC)c2ccccc2)s1 (centres undefined)	0.1	97	-4	-25	98	i	0.93
CCOC(=O)c1ccc(NC(=O)CN2CCc3ccccc3C2)cc1	-1.4	101	-2	56	150	i	0.77
COC(=O)c1[nH]c2cc(OC)ccc2c1NC(=O)CN1CCOCC1	-1.6	104	-12	13	92	i	1.1
CCCSc1nsc(NC(=O)CCC)n1	/	101	-9	0	49	i	0.96
COc1nc(N=C(N)N)nc2ccc(C)cc12	-1.7	128	-6	/	/	i	0.76

Structural class: the entries above with a nitro group on carbon
SMILES	GALR2 ag	RGS16-Gao HTS	PKD1 kinase inh	Insulin prom inh	Insulin prom inh cell count	HSV replic up	HSV replic up primary fold
COCc1cc(C)nc(N/N=C/c2ccc(-c3ccc(Cl)cc3[N+](=O)[O-])o2)c1C#N	/	93	4	/	/	i	1
O=C(Nc1ccc(Cl)cc1)N1CCCN(c2ccc(C(F)(F)F)cc2[N+](=O)[O-])CC1	/	99	/	/	/	i	1.2
COCCn1c(C)cc(C(=O)COC(=O)c2ccc([N+](=O)[O-])o2)c1C	/	86	5	/	/	i	0.95
CC(C)[C@H](NC(=O)c1ccc(Cl)c([N+](=O)[O-])c1)C(=O)NCc1ccc(Cl)cc1Cl	-1.8	103	-4	-45	63	i	0.89
CCC(=O)NC(=S)Nc1ccc(NC(=O)c2ccccc2[N+](=O)[O-])cc1	-0.9	103	-17	/	/	i	0.95

Bioassay records: PubChem BioAssay, several laboratories
